# Mtb betalactam: beta-lactam sensitization of Mtb H37Rv. AID 434955. actives 0.27% (n = 330,000). M. tuberculosis H37Rv growth with meropenem, percent inhibition; hits of this screen are not shown here. inhibition, % at 25 µM;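 active = about 74% or more and at least 40 points above the plate without the antibiotic, then above 30% in a dose series; inconclusive = first-round hits that could not be retested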;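 also: growth measured after seven days incubation then overnight dye step; 0% = bacteria only wells and 100% = bacteria with antibiotic; twin plates without the antibiotic show which effects depend on it; some results filed as inactive read as strong as hits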
# RecA intein inh: blocks M. tuberculosis RecA intein splicing; cell-free RecA intein splicing, fluorescence; inhibition, %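 (about 9 µM by stock and volumes)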; actives 0.75% (n = 290,000); AID 2221; in the data active = inhibition above about 30%; inconclusive = no clear call, values can overlap the other calls;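 also: 0% = vehicle wells and 100% = reference inhibitor control wells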
# Target sequence (P9WHJ3 whole entry, looked up): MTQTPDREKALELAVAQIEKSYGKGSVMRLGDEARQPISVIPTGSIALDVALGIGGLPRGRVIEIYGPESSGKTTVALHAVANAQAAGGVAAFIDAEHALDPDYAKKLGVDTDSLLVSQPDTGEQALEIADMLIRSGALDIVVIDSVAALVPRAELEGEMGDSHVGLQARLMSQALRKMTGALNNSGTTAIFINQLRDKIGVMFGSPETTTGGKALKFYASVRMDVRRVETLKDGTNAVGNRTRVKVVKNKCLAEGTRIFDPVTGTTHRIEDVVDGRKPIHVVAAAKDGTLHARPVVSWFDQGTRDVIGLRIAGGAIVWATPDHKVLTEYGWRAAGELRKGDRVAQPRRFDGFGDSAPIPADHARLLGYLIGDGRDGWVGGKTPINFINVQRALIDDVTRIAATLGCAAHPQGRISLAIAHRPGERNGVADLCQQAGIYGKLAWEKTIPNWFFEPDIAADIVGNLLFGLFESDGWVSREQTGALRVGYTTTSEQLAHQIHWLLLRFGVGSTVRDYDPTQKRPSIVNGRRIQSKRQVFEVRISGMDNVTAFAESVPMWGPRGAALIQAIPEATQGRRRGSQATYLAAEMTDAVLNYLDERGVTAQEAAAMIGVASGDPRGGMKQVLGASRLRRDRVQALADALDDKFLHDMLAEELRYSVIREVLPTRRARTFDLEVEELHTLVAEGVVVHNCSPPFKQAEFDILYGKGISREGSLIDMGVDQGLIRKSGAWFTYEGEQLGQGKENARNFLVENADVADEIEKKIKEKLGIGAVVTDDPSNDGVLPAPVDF
# YopH inh: blocks Yersinia enterocolitica YopH tyrosine phosphatase | fluorescence Ex485/Em525 | inhibition, %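 (about 10 µM by stock and volumes)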 | actives 0.16% (n = 140,000) | AID 898;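 active = inhibition of 50% or more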;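 also: controls were vehicle for no effect and minimum signal wells for full effect; inactives centre near -20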
# Mtb growth: M. tuberculosis H37Rv growth inhibitors, H37Rv strain (AID 1626); M. tuberculosis H37Rv growth inhibition; higher % means a stronger effect; inhibition, % at 10 µM, or IC50 in µM where a hit was titrated; actives 0.95% (n = 220,000);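 active = confirmed in a dose series; inconclusive = inhibition above 80% but not taken into the dose series; inactive = below 80% or under 30% at every dose of the series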;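 also: bacteria incubated seven days before Alamar blue readout; 0% = bacteria only wells and 100% = bacteria with antibiotic wells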
# Arbovirus anti: blocks arbovirus infection; actives 0.37% (n = 200,000); arbovirus infection cell-based antiviral screen; AID 1251; inhibition, % at 10 µM;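 active = inhibition from about 30%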;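 also: bluetongue infection of BSR cells; cell survival read as ATP light after 72 h; 0% = infected wells without compound and 100% = uninfected wells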
# Arbovirus anti repeat: second read-out of Arbovirus anti, no call of its own (marks repeat the call); inhibition, %; measured here: 10K subset replicate screen; many hits read low in the repeat;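 first of two repeat runs on a subset; 0% = infected and 100% = uninfected wells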
# Starred values were filed as active, the others as inactive; ? = inconclusive; . = not tested or not shown. Some of the compounds tested. The share of hits here may be higher or lower than overall.
SMILES,Mtb betalactam,RecA intein inh,YopH inh,Mtb growth,Arbovirus anti,others
O=C(O)c1ccc(C(=O)Nc2cccc3ccccc23)c(C(=O)O)c1,7.1,21.3,.,.,.,
On1c(-c2ccco2)nc2c1CCc1nonc1-2,-3.3,-4.3,4.8,-10.1%,4.7,
O=C(Oc1cccc2cccnc12)c1ccc(N2C(=O)C3C4CCC(C4)C3C2=O)cc1 (stereo not drawn),?,2.1,-5.5,?,18.1,
CCc1nnc(NC(=O)CSc2ccc(-c3ccccc3OC)nn2)s1,-2.8,0.8,.,-14.1%,25.6,
Cc1nnc2sc(-c3ccco3)nn12,-5.8,-2.7,-27.4,-5.1%,-4.8,
COc1cccc(OC)c1C(=O)Nc1ccc(N2CCN(S(C)(=O)=O)CC2)cc1,-6.2,.,11.3,-18.0%,4.9,
CC1=CC(C)(C)N(S(=O)(=O)c2ccc(F)cc2)c2ccccc21,?,1.0,-16.5,-7.6%,-5.1,
COC(=O)c1ccc(N2CCOCC2)c(F)c1,9.0,-0.9,-4.2,.,-4.8,
CCN(CC)C(c1ccc(F)cc1)c1nnnn1CC1CCCO1 (stereo not drawn),2.5,1.9,-5.3,-10.1%,6.3,
O=C(N/N=C/c1c(F)cccc1Cl)C1CC1,5.3,-3.8,.,.,.,
CS(=O)(=O)N(CC(=O)N1CCCC1)Cc1ccc(Cl)c(Cl)c1,2.2,-0.5,.,.,.,
O=C(C[n+]1cc(Br)cc(Br)c1)c1ccccc1,0.2,4.6,.,.,.,
CC(CNC(=S)Nc1cc(F)cc(F)c1)CSc1ccc(Cl)cc1 (stereo not drawn),8.5,14.6,.,0.9%,-33.7,
COc1cc(Cl)c(C)cc1NC(=O)COC(=O)c1cnc(C)cn1,-11.3,0.6,12.9,4.7%,2.6,
Cc1cc(-c2ccccc2)nc2cc(C(N)=O)nn12,0.5,9.9,-24.9,-2.5%,5.4,
Cc1nn(C)c(C)c1CN(C)C(=O)c1cnn2c1NC(c1ccccc1)CC2C(F)(F)F (stereo not drawn),-10.3,0.8,-48.7,0.5%,-18.4,
COc1cccc(/C=N/NC(=O)c2nnn(-c3nonc3N)c2CN(C)c2ccccc2)c1,5.3,3.2,.,.,.,
CCCCOc1ccccc1P(=O)(O)CP(=O)(c1ccccc1)c1ccccc1,-5.4,2.4,-25.8,2.6%,8.5,
O=C(NC1CCCCC1)c1cc(N2C(=O)CCC2=O)ccc1Cl,-3.2,0.8,.,.,.,
CC(CC(=O)Nc1ccc2c(c1)OCCO2)c1ccccc1 (stereo not drawn),0.1,-1.6,-0.3,-6.8%,7.5,
CCOc1ccccc1CNC(=O)C1CCCN(c2nn3c(=O)cc(C)nc3s2)C1 (stereo not drawn),2.8,3.3,.,.,.,
CN(C)CC(=O)N1c2ccccc2CCc2ccc(NC(=O)c3ccc(N)cc3)cc21,1.4,0.6,9.1,2.2%,-4.0,
CC1(C)Cc2nc(-c3ccccc3)n3cnnc3c2CO1,-7.2,0.1,-26.9,-3.0%,6.1,Arbovirus anti repeat=2.9
C#CC(CCN1CCCCC1)(OC)c1ccccc1 (stereo not drawn),1.3,-0.9,.,.,.,
CCOC(=O)N1CCN(C(=O)C2CCN(S(=O)(=O)c3cc(Cl)ccc3Cl)CC2)CC1,-1.4,0.0,-37.5,-3.2%,-1.9,
COc1ccc(NC(=S)Nc2ncccc2C)c(OC)c1,-5.7,-0.6,-19.6,9.4%,-2.1,
Cc1noc(C)c1S(=O)(=O)N(C)CC(=O)Nc1ccc(F)cc1,4.3,0.0,-25.1,-0.5%,4.8,
O=c1nc(-c2ccccc2Cl)c2cc(F)ccc2[nH]1,0.9,-8.3,.,.,.,
Cc1cc(OC(=O)N(C)C)n(-c2ccccc2)n1,2.8,-6.0,.,1.7%,.,
COC(=O)Nc1ccc(NC(C)=O)cc1,-26.0,2.2,-20.1,-3.7%,-3.1,
Cc1ccc(NC(=O)Cc2nc(CSc3nnc(-c4ccc5c(c4)OCO5)o3)cs2)cc1,67.1,1.0,-20.4,9.3%,-13.4,
CCN(CC)CCCNC(=O)COc1ccc2oc3c(c2c1)CCCC3,1.9,-1.2,.,.,.,
C/C(=N\Nc1nc2ccccc2[nH]1)c1cccs1,84.5,-4.8,-11.3,17.4%,5.1,
O=C(COC(=O)c1ccc(Cl)nc1)Nc1ccc2c(c1)OCO2,-5.2,-2.4,.,-1.8%,-8.2,
Cc1cc(C)c(S(=O)(=O)n2ccc3ccccc32)c(C)c1,7.4,4.5,12.7,.,-1.2,
CN1C(=O)Cc2cc(S(=O)(=O)NCc3cccs3)ccc21,-4.9,3.7,.,4.6%,6.4,
O=C(Nc1nonc1-c1ccc(Cl)cc1)c1ccco1,3.0,0.8,.,.,.,
COC(=O)CSc1nnc(CSc2nc(C)cc(C)n2)o1,5.8,.,-26.6,-4.7%,-0.1,
CC(NS(=O)(=O)c1ccc(OCC(=O)Nc2cccc([N+](=O)[O-])c2)cc1)c1ccccc1 (stereo not drawn),-6.9,.,-1.7,6.5%,-9.0,
Cc1ccc2[nH]c3c(c2c1)CCCC3NCCO (stereo not drawn),-1.9,2.0,.,.,.,
Cc1noc(C)c1N=Nc1ccc(Br)cc1C(=O)O,2.5,4.2,.,2.8%,6.1,
O=C(CN1C(=O)NC2(CCCCC2)C1=O)NCCc1c[nH]c2ccccc12,7.7,1.3,.,.,.,
CC(C)C[C@@H](C(=O)NC1CC1)N1C(=O)N2CCc3c([nH]c4ccccc34)[C@@]2(C)C1=O,-1.8,1.6,.,.,.,
O=C(N/N=C/c1ccc2c(c1)OCO2)c1ccc2c(c1)OCO2,-7.1,-0.1,.,.,.,
Cc1occc1C(=O)NCCc1ccc(Cl)cc1,-9.6,5.1,-8.4,-6.6%,5.6,

# 3 consecutive compounds out of the list so far, for reference:
SMILES,Mtb betalactam,RecA intein inh,YopH inh,Mtb growth,Arbovirus anti,others
Cc1noc(C)c1N=Nc1ccc(Br)cc1C(=O)O,2.5,4.2,.,2.8%,6.1,
O=C(CN1C(=O)NC2(CCCCC2)C1=O)NCCc1c[nH]c2ccccc12,7.7,1.3,.,.,.,
CC(C)C[C@@H](C(=O)NC1CC1)N1C(=O)N2CCc3c([nH]c4ccccc34)[C@@]2(C)C1=O,-1.8,1.6,.,.,.,

# The listing continues:
SMILES,Mtb betalactam,RecA intein inh,YopH inh,Mtb growth,Arbovirus anti,others
Cc1ccccc1NC1=NCC(C)S1 (stereo not drawn),3.4,1.8,-26.1,-9.5%,10.9,
O=C(O)C1=C[C@@H](c2ccccc2)C[C@@H](OCCCCO)O1,3.0,-0.3,.,-5.8%,.,
COc1cc(COc2ccc(-c3nnco3)cc2)ccc1OC(F)F,5.0,0.2,.,.,.,
Cc1ccc(NC(=O)COC(=O)CCC(=O)c2ccc(C(C)(C)C)cc2)c([N+](=O)[O-])c1,70.5,2.6,-21.2,7.2%,4.2,
CCc1ccc2c(c1)C(c1cccs1)=NNC(c1cccnc1)=N2,-6.4,-0.5,-36.8,3.9%,4.3,
Brc1ccc(-[n+]2c(-c3ccccc3)cc(-c3ccccc3)cc2-c2ccccc2)cc1,99.7,-0.8,.,.,.,
NS(=O)(=O)c1ccc(CCNC2CC(=O)N(Cc3ccccc3)C2=O)cc1 (stereo not drawn),2.7,-1.2,-107.4,-3.5%,4.7,
O=C(NCC1CCCO1)C1CC(c2ccccc2Cl)=NO1 (stereo not drawn),-0.6,.,5.9,4.7%,6.5,
COc1ccc(NC(=O)c2ccc(S(=O)(=O)N(C)C)cc2)cc1,-15.2,-0.9,.,3.5%,1.4,
C=CCC12C=C(OC)C(=O)OC(OC)(C1O)[C@H](c1ccc3c(c1)OCO3)[C@H]2C (stereo partly drawn),-6.5,-1.8,.,-10.9%,.,
O=c1[nH]c(C2CCCN(S(=O)(=O)c3ccc(F)cc3)C2)nc2c1nnn2Cc1ccccc1 (stereo not drawn),-4.5,0.9,-38.6,7.1%,2.2,
CN(C)S(=O)(=O)c1cccc(NC(=O)Cc2ccc(-c3ccccc3)cc2)c1,-3.1,5.8,.,.,.,
O=C(NCCc1cccs1)C1CC(c2ccc([N+](=O)[O-])cc2)=NO1 (stereo not drawn),-9.3,-0.1,-35.8,8.9%,-3.6,
COCCCN1CCN(C2Cc3ccccc3Sc3ccc(Cl)cc32)CC1 (stereo not drawn),74.9,6.3,5.3,54.7%,-35.8,
CCCn1c(SCC(=O)Nc2cccc(S(=O)(=O)N(C)C)c2)nc2ccccc2c1=O,6.2,4.7,.,-1.7%,.,
COc1ccc(OC)c(NC(=O)CCN2CCN(C)CC2)c1,2.4,0.4,.,.,.,
Cc1cc(C(=O)Nc2ccccc2C(=O)O)ccc1NC(=O)COc1ccccc1Cl,-0.9,0.1,.,.,.,
O=C(Nc1c(-c2ccc(F)cc2)nc2ccccn12)c1ccc(F)cc1,-0.9,-4.4,.,.,.,
CN(C(=O)Cn1nc(Cl)ccc1=O)C1CCCN(Cc2ccccc2F)C1 (stereo not drawn),-2.4,0.4,.,.,.,
O=C(Cc1csc(Nc2nc(=S)[nH]c3ccccc23)n1)NCCCN1CCN(c2ccccc2F)CC1,84.1,18.2,.,3.3%,-6.6,
CCCn1nc2cc(C(=O)NCCCCc3ccccc3)ccc2c1OCC,.,5.3,-36.7,-2.7%,-20.6,
N#Cc1cccc(NC(=O)c2nc(-c3ccccc3)n(-c3ccccc3)n2)c1,59.1,3.2,-53.2,24.3%,5.1,
Cc1nc(SCC(=O)N2CCCCC2)c2c(C)c(C)sc2n1,0.2,-1.3,.,.,.,
CCN(CC(=O)Nc1ccc2c(c1)OCCO2)C(=O)COc1ccc(C)cc1,0.3,-0.4,.,.,.,
CN(C)CCCNC(=O)/C=C/c1ccc(OCc2c(F)cccc2Cl)cc1,-2.5,.,.,-5.9%,-27.3,
COc1cccc(/C=C/C(=O)Nc2ccccc2N2CCOCC2)c1,-2.6,2.9,.,4.9%,5.4,
CCN1/C(=C/c2ccc3cc(C)ccc3[n+]2CC)Sc2ccccc21,100.3,4.1,0.1,?,-35.7,
CCN(Cc1ccccc1)S(=O)(=O)c1c[nH]c(C(=O)OC)c1,?,-1.8,.,.,.,
CCOC(=O)C1CCN(C(=O)Cn2cc(C(=O)OC)c3ccccc32)CC1,-8.1,0.9,.,-3.8%,1.1,
Cc1ccccc1COC(=O)CCC1=NS(=O)(=O)c2ccccc2N1,-2.8,0.4,.,.,.,
Cc1oc2c(cc(NS(=O)(=O)c3ccc4c5c(cccc35)C(=O)N4)c3ccccc32)c1C(=O)OC(C)C,60.2,-0.1,4.5,.,-12.3,

# Molecules shown so far with fluorine, in the order listed:
SMILES,Mtb betalactam,RecA intein inh,YopH inh,Mtb growth,Arbovirus anti,others
CC1=CC(C)(C)N(S(=O)(=O)c2ccc(F)cc2)c2ccccc21,?,1.0,-16.5,-7.6%,-5.1,
COC(=O)c1ccc(N2CCOCC2)c(F)c1,9.0,-0.9,-4.2,.,-4.8,
CCN(CC)C(c1ccc(F)cc1)c1nnnn1CC1CCCO1 (stereo not drawn),2.5,1.9,-5.3,-10.1%,6.3,
O=C(N/N=C/c1c(F)cccc1Cl)C1CC1,5.3,-3.8,.,.,.,
CC(CNC(=S)Nc1cc(F)cc(F)c1)CSc1ccc(Cl)cc1 (stereo not drawn),8.5,14.6,.,0.9%,-33.7,
Cc1nn(C)c(C)c1CN(C)C(=O)c1cnn2c1NC(c1ccccc1)CC2C(F)(F)F (stereo not drawn),-10.3,0.8,-48.7,0.5%,-18.4,
Cc1noc(C)c1S(=O)(=O)N(C)CC(=O)Nc1ccc(F)cc1,4.3,0.0,-25.1,-0.5%,4.8,
O=c1nc(-c2ccccc2Cl)c2cc(F)ccc2[nH]1,0.9,-8.3,.,.,.,
COc1cc(COc2ccc(-c3nnco3)cc2)ccc1OC(F)F,5.0,0.2,.,.,.,
O=c1[nH]c(C2CCCN(S(=O)(=O)c3ccc(F)cc3)C2)nc2c1nnn2Cc1ccccc1 (stereo not drawn),-4.5,0.9,-38.6,7.1%,2.2,
O=C(Nc1c(-c2ccc(F)cc2)nc2ccccn12)c1ccc(F)cc1,-0.9,-4.4,.,.,.,
CN(C(=O)Cn1nc(Cl)ccc1=O)C1CCCN(Cc2ccccc2F)C1 (stereo not drawn),-2.4,0.4,.,.,.,
O=C(Cc1csc(Nc2nc(=S)[nH]c3ccccc23)n1)NCCCN1CCN(c2ccccc2F)CC1,84.1,18.2,.,3.3%,-6.6,
CN(C)CCCNC(=O)/C=C/c1ccc(OCc2c(F)cccc2Cl)cc1,-2.5,.,.,-5.9%,-27.3,

# Compound activity deposited in PubChem BioAssay by several laboratories.
